Source: PubChem BioAssay
T cruzi repl – inhibitors of intracellular T. cruzi growth, primary screen, luminescence, NIH3T3 host cells; T. cruzi beta-gal in NIH3T3, 90 h; inhibition, % (no concentration beside the values); hit rate 1.4% among 300,000; AID 1885, 2009;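 active = mean inhibition across valid replicates above about 55%, limit read from the data; inconclusive = mean below that limit but half or more replicates reach it; inactive = mean below it, under half of replicates reach it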;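 note: signal also drops with host cell toxicity which is not excluded here; 0% = plate median of DMSO wells and 100% = zero luminescence signal; higher percent means less beta-gal luminescence so fewer parasites; stock transfer was 50 nL into about 50 µL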
MLL AF4-AF9 inh – inhibitors of AF4 peptide binding to AF9, primary screen, biochemical, AlphaScreen, biotin-AF4 peptide, FLAG-AF9, single point; Protein AF-9 (Homo sapiens), P42568; inhibition, % at 10 µM; hit rate 0.47% among 350,000; AID 651704, 2012;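 active = every replicate reaching a set inhibition limit, whatever the replicate mean, cut at about 25% in these data; inconclusive = mean inhibition reaches that limit but some replicates miss it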;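 note: 0% = plate neutral control median and 100% = total signal loss; the record names both 10 and 1 µM as test concentration; the first replicate is given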
Target sequence (P42568 whole entry, looked up): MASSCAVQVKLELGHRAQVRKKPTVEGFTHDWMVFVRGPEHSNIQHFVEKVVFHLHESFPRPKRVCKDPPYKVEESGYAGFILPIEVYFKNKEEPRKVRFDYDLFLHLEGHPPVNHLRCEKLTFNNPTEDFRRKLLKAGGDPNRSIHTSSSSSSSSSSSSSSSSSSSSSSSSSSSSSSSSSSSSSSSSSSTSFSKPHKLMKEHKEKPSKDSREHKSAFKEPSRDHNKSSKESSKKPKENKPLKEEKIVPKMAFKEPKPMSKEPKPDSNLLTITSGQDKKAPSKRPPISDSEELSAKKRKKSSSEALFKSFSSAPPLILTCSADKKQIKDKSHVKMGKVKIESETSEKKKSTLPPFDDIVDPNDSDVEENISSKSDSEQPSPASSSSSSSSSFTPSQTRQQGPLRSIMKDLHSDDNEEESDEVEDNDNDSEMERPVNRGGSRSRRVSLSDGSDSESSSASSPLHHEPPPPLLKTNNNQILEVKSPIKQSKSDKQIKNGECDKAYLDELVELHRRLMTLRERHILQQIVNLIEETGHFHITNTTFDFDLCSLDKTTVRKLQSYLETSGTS
Calb FLC – C. albicans growth inhibition with fluconazole, primary screen, CaCi-2 strain, Alamar Blue fluorescence | hit rate 0.57% among 300,000 | AID 1979, 2009 | growth inhibition, % (test concentration not listed) | C. albicans CaCi-2 (fluconazole-resistant clinical isolate) + fluconazole, 48 h;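 active = most replicates above 75%; inconclusive = exactly half above 75%; inactive = most below 75%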;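 note: all wells also contain fluconazole at 8 µg/ml as a sub-toxic cotreatment; 0% = median of DMSO wells and 100% = median of geldanamycin control wells; wells of about 8 µL received 7.5 nL stock; the first replicate is given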
RanGTP-Imp inh – inhibitors of RanGTP-importin-beta interaction, primary screen, biochemical, FRET, CFP-Ran, YFP-importin-beta, homogeneous | Ran GTPase (GTP-bound) - importin-beta complex | cell-free CFP-Ran/YFP-importin-beta FRET ratio | inhibition, % (concentration not given with the values) | hit rate 1.1% among 300,000 | AID 2216, 2009;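 active = most replicates above 15%; inconclusive = exactly half above 15%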;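 note: 0% = DMSO wells and 100% = Ran loaded with GDP instead of GTP; wells of about 40 µL received 100 nL stock; the first replicate is given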
rRNA inh HTS – reduced GFP signal of wild-type E. coli, primary screen, bacterial rRNA inhibitor project, GFP/RFP fluorescence, OD600, single point; E. coli WT GFP vs humanized-ribosome RFP mutants, 24 h; hits give low values; DMSO median 0, no signal -100; GFP signal change (wild-type ribosome), % (concentration not given with the values); hit rate 1.6% among 350,000;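 active = significant combined selectivity score with lowered wild-type GFP, culture density cut under 30%, mutant RFP and density less affected; inactive = any of these conditions unmet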; note: one replicate is shown; some compounds called inactive have numbers as strong as hits
FGF22 binding – binders of human FGF22 protein, primary screen, FGF22 synaptogenesis inhibitor project, biophysical, thermal shift, single point. Fibroblast growth factor 22 (Homo sapiens), Q9HCT0. recombinant FGF22 thermal shift, SYPRO orange fluorescence; percent of sucrose octasulfate shift, DMSO zero. calls only at 9.99 µM. hit rate 1.5% among 340,000. AID 651658, 2012;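 active = melting point raised past a set limit in the mean and every replicate; inconclusive = no clear call; three in four hits are not shown here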
Target sequence (Q9HCT0 whole entry, looked up): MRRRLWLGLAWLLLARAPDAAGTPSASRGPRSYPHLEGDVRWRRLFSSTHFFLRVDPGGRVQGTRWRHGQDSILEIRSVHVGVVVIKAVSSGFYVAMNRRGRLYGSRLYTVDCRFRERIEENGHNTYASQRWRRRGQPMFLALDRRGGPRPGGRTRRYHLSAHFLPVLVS
ALR inh – inhibitors of human ALR sulfhydryl oxidase, primary screen, biochemical, H2O2 detection, HRP-luminol luminescence, single point | FAD-linked sulfhydryl oxidase ALR (Homo sapiens), P55789 | purified ALR, DTT oxidation | inhibition, % (test concentration not listed) | hit rate 3.8% among 290,000 | AID 485317, 2010;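 active = mean and each replicate at 75% or more; inconclusive = only one of the two met; inactive = neither met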;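 note: stock transfer was 7.5 nL into about 7.5 µL; 0% = neutral wells and 100% = wells with inactivated enzyme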
Target sequence (P55789 whole entry, looked up): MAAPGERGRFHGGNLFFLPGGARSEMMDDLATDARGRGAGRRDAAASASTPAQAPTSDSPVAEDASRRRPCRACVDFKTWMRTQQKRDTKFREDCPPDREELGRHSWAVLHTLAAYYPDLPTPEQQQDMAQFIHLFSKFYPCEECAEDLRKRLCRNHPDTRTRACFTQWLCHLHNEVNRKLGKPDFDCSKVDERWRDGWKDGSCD
Beta cell apopt – inhibitors of cytokine-induced beta cell apoptosis, primary screen, luminescence; INS-1E cytokine-induced death, ATP luminescence, 48 h; percent of positive-control rescue, neutral wells zero; protection from apoptosis, % (test concentration not listed); hit rate 0.8% among 300,000;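 active = all replicates at 75% or more, or half of them and the mean; inconclusive = half reach 75% but not the mean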;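 note: 0% = cytokine-treated negative control wells and 100% = positive control rescue; higher means more ATP so stronger rescue from cytokine killing; wells of about 40 µL received 100 nL stock; the first replicate is given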
rRNA inh HTS OD600 – second read-out of rRNA inh HTS, no call of its own (marks repeat the call); OD600 change, %; measured here: OD600 growth;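 optical density of the mix in the first replicate; 0 = DMSO median and -100 = no signal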
rRNA inh HTS RFP – further read-out of rRNA inh HTS, marked with its call; RFP signal change, %; measured here: RFP humanized mutant strains;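 first replicate; 0 = DMSO median and -100 = no signal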
The depositor's hits bear a star; i = inactive; ? = inconclusive; . = not tested or not shown; & = joins results of further samples. These rows are one share of the data, so the mix of outcomes need not match the whole.

SMILES	T cruzi repl	MLL AF4-AF9 inh	Calb FLC	RanGTP-Imp inh	rRNA inh HTS	rRNA inh HTS OD600	rRNA inh HTS RFP	FGF22 binding	ALR inh	Beta cell apopt
CCNC(=S)N(Cc1ccc2c(c1)OCO2)C1CC(=O)N(c2ccc(F)cc2)C1=O (stereo not given)	-5.2	.	-4.2	-0.7	.	.	.	.	.	8.1
O=C(CCN1C(=O)c2ccccc2S1(=O)=O)Nc1ccc(F)c([N+](=O)[O-])c1	-4.4	-1.6	0.2	3.6	3.8	12.2	-2.8	i	-11.8	4.0
Cc1nnc(NC(=O)C2CCCN2C(=O)Nc2ccccc2)s1 (stereo not given)	-5.2	1.2	-2.8	1.1	6.6	8.1	-0.7	i	3.5	1.8
CC1C(=O)C(C)C(c2ccc(O)cc2)NC1c1ccc(O)cc1 (stereo not given)	14.6	1.8	-3.3	0.4	5.6	2.2	6.8	i	1.6	-2.9
CN(C)CCCN(C(=O)COc1ccc(Cl)cc1)c1nc2c(F)cccc2s1	80.0*	-6.5	-1.5	3.7	4.8	4.4	5.4	i	-29.2	-2.2
CC(C)NC(=O)N(C)C[C@H]1Oc2c(NS(=O)(=O)c3ccc(F)cc3)cccc2C(=O)N([C@H](C)CO)C[C@@H]1C	.	-1.6&3.9	.	.	-0.3&-2.5	-2.1&4.5	0.3&1.2	i	-1.4	-5.1
CCOC(=O)C1CCN(C(=O)c2cc3c(ccc4ccccc43)o2)CC1	9.6	-1.4	-3.8	-0.6	-46.4	-73.1	-10.1	i	-19.8	-3.1
O=C(CCS(=O)(=O)c1cc2c(cc1Cl)NC(=O)CO2)NCc1ccc(F)cc1	0.6	-6.4	-5.3	-0.2	12.6	14.1	7.6	i	-5.9	-4.5
O=C(Cn1c(=O)n(Cc2ccco2)c(=O)c2c3c(sc21)CCCCC3)c1ccccc1	-2.0	2.4	-6.4	-4.8	-19.4*	0.1*	-1.9*	i	63.2	-5.7
COc1ccc(S(=O)(=O)N2CCCCC2)cc1-n1cnnn1	-2.4	-0.8	13.8	0.2	5.7	-5.1	0.4	i	-10.5	-6.7
CC1(C)CC(NC(=S)Nc2ccc([N+](=O)[O-])cc2)CC(C)(C)N1	-1.2	6.0	-2.2	2.9	9.1	11.4	3.7	i	-5.4	-9.9
COc1ccc(-c2csc(N(Cc3ccco3)C(=O)c3cccs3)n2)cc1	15.2	7.1	4.8	0.4	-11.1	-6.5	4.5	i	-0.9	0.6
O=C(CCCCCN1C(=O)c2ccccc2C1=O)Nc1ccc(C(=O)O)cc1	-5.9	-1.0	-5.1	9.4	2.2	8.1	-0.7	i	-5.7	-1.3
CCC(=O)Nc1ccc(C(=O)N/N=C/c2ccccc2[N+](=O)[O-])cc1	14.1	.	-11.1	-2.5	.	.	.	.	-4.5	2.7
COc1ccc(C)cc1NC(=O)CSc1nnnn1C1CCCC1	-7.2	3.2	-3.8	?	-0.8	2.0	0.4	i	.	-3.9
CN(C)S(=O)(=O)c1cccc(COC(=O)c2cnccn2)c1	-5.3	0.2	0.1	0.3	12.5	12.6	-1.2	i	-1.0	-6.0
CCCN1Cc2cccc(C(=O)NCc3cccs3)c2C1=O	2.7	.	0.0	0.4	.	.	.	.	12.6	-11.2
COc1cc(/C=C2\SC(=S)N(CC(=O)O)C2=O)ccc1OC(=O)c1ccco1	3.1	-1.5	1.5	-0.3	-7.5	-3.4	-1.9	i	98.8*	-3.9
CCCc1cc(=O)[nH]c(SCc2ccc(F)cc2)n1	-6.2	1.5	-9.7	1.9	1.4	-8.4	-4.6	i	-9.3	-2.6
CCOc1ccc(/C=C2/SC(=S)N(CCC(=O)Nc3ccc(C(=O)O)cc3)C2=O)cc1	-0.6	1.3	-2.3	1.5	10.1	8.5	0.7	i	5.6	-14.4
COc1ccc(C(=O)N2CC3(C)CC2CC(C)(C)C3)cc1OC (stereo not given)	-4.9	.	-3.1	5.5	.	.	.	.	-0.3	-4.8
O=C(CSc1nnc(C2CC2)n1-c1ccccc1)N1CCCC1	.	0.6	.	.	7.5	14.0	-0.4	i	0.7	-4.6
Cc1cc(NC(=O)c2ccc(Cl)cc2)c(C(C)C)cc1O	14.6	.	6.1	3.4	.	.	.	.	57.9	1.0
Cc1nn(CCc2nn[nH]n2)c2nc(-c3ccccc3)cc(C(F)(F)F)c12	3.2	-2.7	11.6	5.0	-13.1	-19.6	-4.5	i	2.1	-2.8
O=C(COC(=O)c1ccccc1O)NCCC1=CCCCC1	-5.3	-1.5	-1.9	0.3	-21.8*	-12.4*	-5.8*	i	-12.5	-5.8
(listing goes on)
SMILES	T cruzi repl	MLL AF4-AF9 inh	Calb FLC	RanGTP-Imp inh	rRNA inh HTS	rRNA inh HTS OD600	rRNA inh HTS RFP	FGF22 binding	ALR inh	Beta cell apopt
COc1cc(CCC(=O)NCCc2ccc(F)cc2)cc(OC)c1OC	-0.4	-2.3	16.2	2.8	12.2	6.0	-0.3	i	-1.6	-8.4
O=C(Nc1ccc(C(=O)N2CCOCC2)cc1)Nc1cccc2ccccc12	-8.1	-0.4	1.3	-3.1	4.9	9.0	0.7	i	-11.4	2.1
CN(/N=C/c1ccc(Br)o1)C1=NS(=O)(=O)c2ccccc21	45.9	-1.9	2.2	3.6	16.4	13.1	2.2	i	-1.4	.
CCC(C)NC(=O)/C=C/c1ccc(S(=O)(=O)NCc2ccco2)cc1 (stereo not given)	-7.4	1.2	-2.7	-0.2	-9.3	-1.1	3.7	i	1.3	-5.0
CCN(Cc1ccccc1)C(=O)Cn1c(C(C)O)nc2ccccc21 (stereo not given)	3.9	-18.8	18.5	6.2	-6.4	-8.7	1.7	i	-2.5	8.0
O=C(Nc1ccc2oc(-c3ccncc3)nc2c1)c1ccc2c(c1)OCCO2	-6.2	9.7	3.5	-1.2	8.9	10.6	-3.3	i	1.1	3.0
O=c1[nH]c2ccccc2cc1CN(Cc1ccco1)S(=O)(=O)c1ccc(F)cc1	14.3	-0.3	2.6	0.4	-4.8	-8.9	5.2	i	1.4	.
Cc1ccc(OCC(=O)Nc2ccccc2[N+](=O)[O-])c(Br)c1	16.7	1.2	-8.4	-1.7	6.7	14.3	-5.9	i	-1.5	-4.8
Cc1ccnc(NC(=O)CNC(=O)C23CC4CC(CC(C4)C2)C3)c1	-1.0	-0.6	-12.7	-0.8	2.0	2.6	3.2	i	-2.8	.
CC1=C(C(N)=O)C(c2cccc(O)c2)n2nc(CCCO)nc2N1 (stereo not given)	-0.2	-3.1	5.7	?	5.9	10.6	-1.5	i	31.6	-2.5
COc1cccc(-c2nc3ccccc3c(=O)n2NC(=O)c2cccnc2Cl)c1	-19.1	-1.0	-11.4	7.5	12.4	13.2	1.8	i	0.4	-0.4
O=C(C1CCCCN1S(=O)(=O)c1ccccc1)N1CCN(Cc2ccccc2)CC1 (stereo not given)	18.2	.	-7.0	5.3	.	.	.	.	3.3	-5.4
CCn1c(SCC(=O)c2ccccc2)nnc1-c1ccoc1C	-23.3	.	-0.5	-2.4	7.6	7.8	0.3	.	84.1*	-4.9
CC(C)Cc1nc2oc3c(NCCCN4CCOCC4)ncnc3c2c2c1CCC2	23.8	.	21.2	8.6	.	.	.	.	-2.2	-0.5
O=C(CCCCCn1nnc2ccccc2c1=O)N[C@H](C(=O)O)c1ccccc1	6.1	2.1	3.0	3.6	14.4	5.9	-3.9	i	-2.2	-6.7
Cc1ccc(NC(=O)CCC(=O)Nc2nnc(C3CCCCC3)s2)cc1	-1.4	-2.4	2.9	2.2	4.5	5.5	-2.6	i	8.0	-0.2
COCCN1CN=C(Nc2nc3ccccc3s2)NC1	15.6	.	2.0	2.2	.	.	.	.	-14.8	-6.2
O=C(NC1CCN(C(=O)Nc2cccc(F)c2)CC1)c1ccco1	-3.6	-0.9	-0.9	5.1	2.8	-1.6	-0.5	i	1.0	0.6
CCOC(=O)CSC1=C(C#N)C(c2ccc3c(c2)OCO3)CC(=O)N1 (stereo not given)	-14.5	.	-12.9	-1.7	.	.	.	.	0.4	-6.9
COc1ccc2c(c1)C(=NNC(=O)c1ccccn1)c1cc(OC)ccc1-2	30.7	.	15.0	-0.5	.	.	.	.	-1.8	7.2
Cc1ccc2nc(/C(C#N)=C\c3cc(C)n(-c4cccc([N+](=O)[O-])c4)c3C)[nH]c2c1	?	.	22.7	2.9	.	.	.	.	-1.3	5.4
COc1ccccc1NC(=O)COC(=O)C1CC2C=CC1C2 (stereo not given)	0.9	-2.0	?	3.5	-3.0	7.5	-1.4	i	-0.7	-5.6
CCN(Cc1ccccc1)C(=O)c1ccc(CS(=O)c2ccccc2C)o1 (stereo not given)	0.4	3.6	8.2	-0.1	-7.2	-18.7	0.8	i	2.0	-2.3
CCSc1nnc(NC(=O)c2ccc3nc[nH]c3c2)s1	.	-12.5	.	.	-11.9	-4.9	-5.2	i	1.3	-5.6
COc1ccc(C(CC(=O)NCC(OC)OC)NS(=O)(=O)c2ccc(Cl)cc2)cc1 (stereo not given)	-8.9	1.3	2.9	-1.1	-2.3	-10.2	-2.8	i	.	-5.1
Later entries
SMILES	T cruzi repl	MLL AF4-AF9 inh	Calb FLC	RanGTP-Imp inh	rRNA inh HTS	rRNA inh HTS OD600	rRNA inh HTS RFP	FGF22 binding	ALR inh	Beta cell apopt
CCN(CC)CC(=O)NC1CC(C)(C)Cc2c1cnn2-c1ccc(F)cc1 (stereo not given)	-4.5	-1.5	4.6	-6.6	-0.7	0.2	-0.3	i	.	.
COc1ccc(NC(=O)COc2ccc(N(C)S(=O)(=O)c3ccc(C)cc3)cc2)cc1	0.0	.	1.3	?	.	.	.	.	-1.5	-2.5
COc1ccccc1N/C(=N/S(=O)(=O)c1ccc(Cl)cc1)c1ccccc1	2.0	.	10.9	-3.0	.	.	.	.	4.9	-1.7
CCn1nc(C(=O)NNC(=O)CCOc2cc(C)ccc2C)c2ccccc2c1=O	-13.2	-2.5	4.5	-2.9	2.3	11.4	0.8	i	5.2	-3.5
COc1ccc(-c2nnc(SCC(=O)Nc3ccc4c(c3)OCCO4)n2N)cc1OC	8.6	.	-9.3	7.5	.	.	.	.	-9.8	0.4
CN(CC1CCOCC1)C(=O)CC1C(=O)NCCN1Cc1ccccc1F (stereo not given)	-8.3	1.9	2.3	4.4	5.9	8.1	-2.2	i	-33.0	-3.4
